CSC inhib – cancer stem cell viability inhibitors, primary screen, luminescence; actives 1.1% (n = 300,000); cancer stem cell-like cells viability; AID 2717, 2010; inhibition, % at 7.5 µM;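 active = mean at 75% or more and at least half the replicates too; inconclusive = mean and replicates disagree; tested in HMLE shEcad cells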;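 also: 0% = median of negative and 100% = median of positive control wells; the first replicate is given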
Yeast UUG start – modulators of yeast start codon fidelity, primary screen, whole organism, S. cerevisiae, single point, plate reader. S. cerevisiae UUG-firefly luciferase reporter, luminescence/redox ratio. activity score, % at 18.7 µM. actives 0.13% (n = 350,000);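 active = replicate mean at a twofold rise or more, about +100% in these data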;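 also: firefly luciferase made from a UUG start codon reports start codon fidelity; reporter light over untreated wells divided by growth signal over untreated wells; some hits fall short of that in this replicate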
Env fusion inh – inhibitors of HIV-1 Env-driven cell-cell fusion, primary screen, HeLa-JRFL effector, CEM21 target cells, luciferase. actives 1.1% (n = 360,000). inhibition, % at 12.3 µM;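 active = mean replicate inhibition score of at least 50 and every replicate individually at or above 50; inconclusive = only one of the two criteria met; inactive = mean below 50 and not all replicates reaching 50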;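 also: 0% = plate neutral controls and 100% = maraviroc near 300 nM; one replicate is shown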
MT1-MMP act inh – blockers of MT1-MMP proenzyme processing, primary screen, HT1080 RFP-PRO-GFP cells, GFP/RFP fluorescence; GFP/RFP ratio fluorescence, overnight; percent of plate control window, DMSO zero; GFP/RFP ratio change, % at 20 µM; actives 0.061% (n = 360,000); AID 651647, 2012;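 active = GFP/RFP ratio change of at least 30% with cell ATP level not reduced by more than half and red fluorescence within 50% of control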; also: strong numbers were not always called active
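system = RFP-PRO-GFP reporter HT1080 cells | dosing = 20 µM single dose, 1% DMSO | timing = overnight cell settling, then overnight compound exposure, 37 °C, 5% CO2 | read-out basis = GFP/RFP fluorescence ratio | controls = DMSO and RFP-L50D-GFP cell wells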
Rce1 inh – yeast Rce1p protease inhibitors, primary screen, biochemical, fluorescence, cell-free homogeneous. CAAX prenyl protease 2 (Saccharomyces cerevisiae (strain ATCC 204508 / S288c)), Q03530. yeast membranes, quenched prenylated peptide cleavage fluorescence. calls only. actives 0.27% (n = 290,000). AID 2563, 2010;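 active = fall in fluorescence gain of 50% or more versus controls, with final raw signal at or below 3038400; inconclusive = same 50% fall but final raw signal above 3038400; inactive = fall in fluorescence gain under 50%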;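 also: plate controls were neutral control wells for no effect and wells lacking membranes for full effect; tested at 10 µM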
eIF4H FP inh – human eIF4H binding inhibitors, primary screen, translation initiation inhibitor project, biochemical, uHTS, fluorescence polarization; Eukaryotic translation initiation factor 4H (Homo sapiens), Q15056; eIF4H fluorescence polarization binding assay; inhibition, % at 35 µM; actives 0.94% (n = 290,000); AID 2012, 2009;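 active = 50% or more with normal probe brightness, or confirmed in later tests; inconclusive = above 50% with abnormal brightness, or retests that disagree; inactive = below 50% or failed in later tests; about a fifth of its hits are not listed in these tables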;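 also: calls also rest on retests at 20 µM and on dose response follow-up; 0% = protein and probe with vehicle and 100% = probe without protein; strong numbers were not always called active; many hits fall short of the cut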
PABP polyA inh – PABP poly(A) RNA binding inhibitors, primary screen, biochemical, fluorescence polarization, uHTS; Polyadenylate-binding protein 1 (Homo sapiens), P11940; inhibition, % at 35 µM; actives 1% (n = 290,000); AID 2014, 2009;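 active = 50% or more with normal probe brightness, or confirmed in later tests; inconclusive = above 50% with abnormal brightness, or retests that disagree; inactive = below 50% or failed in later tests; about a fifth of its hits are not listed in these tables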;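 also: calls also rest on retests at 20 µM and on dose response follow-up; controls were probe without protein and protein plus probe with vehicle; some compounds called inactive have numbers as strong as hits; many hits fall short of the cut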
Target sequence (P11940 whole entry, looked up): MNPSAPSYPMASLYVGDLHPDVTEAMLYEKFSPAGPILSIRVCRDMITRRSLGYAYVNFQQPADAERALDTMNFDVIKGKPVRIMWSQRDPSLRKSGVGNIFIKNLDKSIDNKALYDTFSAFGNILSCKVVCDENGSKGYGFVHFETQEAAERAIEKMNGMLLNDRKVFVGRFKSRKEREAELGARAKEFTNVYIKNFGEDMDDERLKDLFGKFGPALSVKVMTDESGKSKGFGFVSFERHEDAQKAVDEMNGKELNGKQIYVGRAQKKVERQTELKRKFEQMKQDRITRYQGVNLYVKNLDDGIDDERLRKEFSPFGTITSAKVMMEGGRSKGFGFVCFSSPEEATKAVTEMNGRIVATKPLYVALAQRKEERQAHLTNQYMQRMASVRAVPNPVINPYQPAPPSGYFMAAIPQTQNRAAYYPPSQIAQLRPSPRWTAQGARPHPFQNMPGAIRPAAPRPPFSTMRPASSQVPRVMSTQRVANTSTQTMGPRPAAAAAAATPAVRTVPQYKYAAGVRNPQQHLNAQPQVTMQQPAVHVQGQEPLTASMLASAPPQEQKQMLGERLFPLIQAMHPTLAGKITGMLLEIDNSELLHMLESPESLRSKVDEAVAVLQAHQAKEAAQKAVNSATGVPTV
eIF4H FP inh retest – recorded beside eIF4H FP inh, whose call it bears; inhibition, %; compound at 20 µM; confirmation average;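 mean of two retest wells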
PABP polyA inh retest – also measured in PABP polyA inh; calls as there; inhibition, %; compound at 20 µM; confirmation repeats;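 mean of two retest wells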
MT1-MMP act inh RFP – second read-out of MT1-MMP act inh, no call of its own (marks repeat the call); RFP signal change, %; measured here: RFP expression control read;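 0 = vehicle wells; hits needed this value within 50% of zero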
* marks the source's active call; other numbers are inactive results; i = inactive; ? = inconclusive; . = not tested or not shown; & = joins results of further samples; [ ] = dose if it differs, or a comment.

Start of the data: the first 2 compounds as a preview:
SMILES	CSC inhib	Yeast UUG start	Env fusion inh	MT1-MMP act inh	MT1-MMP act inh RFP	Rce1 inh	eIF4H FP inh	PABP polyA inh	others
CC(=O)N1CCN(C(=O)C(Cc2c[nH]c3ccccc23)NC(=O)c2ccccc2Cl)CC1 (stereo unspecified)	-5.5	-1.8	19.1	-4.2	0.5	i	2.6	-1.3
O=C(NCCN1CCOCC1)c1cccc(S(=O)(=O)Nc2ccc(Br)cc2)c1	.	-8.8	-31.7	-1.3	-1.1	.	.	.

Results (from the top)
SMILES	CSC inhib	Yeast UUG start	Env fusion inh	MT1-MMP act inh	MT1-MMP act inh RFP	Rce1 inh	eIF4H FP inh	PABP polyA inh	others
CC(=O)N1CCN(C(=O)C(Cc2c[nH]c3ccccc23)NC(=O)c2ccccc2Cl)CC1 (stereo unspecified)	-5.5	-1.8	19.1	-4.2	0.5	i	2.6	-1.3
O=C(NCCN1CCOCC1)c1cccc(S(=O)(=O)Nc2ccc(Br)cc2)c1	.	-8.8	-31.7	-1.3	-1.1	.	.	.
Cc1sc2ncn(CC(=O)NCCCC(=O)Nc3ccc(C(C)C)cc3)c(=O)c2c1C	17.2	4.3	1.0	2.0	-0.4	i	-9.7	2.0
COc1ccc(NC(=O)c2sc3ncn(CC(=O)N4CCN(c5ccccn5)CC4)c(=O)c3c2C)cc1OC	12.3	-22.8	12.8	4.2	-3.2	i	-9.1	4.1
O=C(Cc1ccccc1)Nc1ccc(NC(=O)c2ccco2)cc1	-9.0	.	-23.3	2.4	0.9	i	1.3	7.1
Cc1ccc(NC(=O)CCC(=O)NNC(=O)c2ccco2)c(C)c1	-1.5	18.2	-31.1	14.3	-1.9	i	1.3	4.6
COc1ccc2cc(C#N)c(SCC(=O)N3CC(=O)Nc4ccccc43)nc2c1	14.7	-16.8	.	-76.8	-7.8	i	-7.9	-5.2
O=C(CCc1nnc2ccc(NCc3ccco3)nn12)Nc1cc(F)ccc1F	10.8	-1.9	-12.7	-3.0	-3.2	i	75.2*	43.4	eIF4H FP inh retest=75.7*;PABP polyA inh retest=39.4
CCOC(=O)COc1ccc2c(=O)c(-c3ccccc3OC)coc2c1	-7.4	.	-8.4	1.5	1.9	i	12.0	-6.9
O=C(NNC1CC(=O)N(c2ccc(F)cc2)C1=O)c1cccnc1 (stereo unspecified)	-10.1	.	7.3	2.9	-0.2	i	-1.9	8.0
N#Cc1c(N)n(CCNC(=O)c2ccc(Cl)cc2)c2nc3ccccc3nc12	8.0	-7.5	-31.3	-7.8	-1.7	i	15.7	15.7
COc1ccc2c(c1)CCC1(C)CC(=O)C(Br)=C21 (stereo unspecified)	.	-44.5	-26.8	-5.3	-2.1	.	.	.
O=C(CSCc1cccc(Cl)c1)Nc1ccccc1-c1ccccc1	75.4*	.	19.4	-2.5	-6.1	i	-1.2	-1.0
O=C(CN1CCN(c2ccccn2)CC1)Nc1cc(C(F)(F)F)ccc1Cl	0.4	.	.	-1.0	-7.0	i	-3.7	1.3
c1ccc(OCCCn2ccnc2)cc1	13.3	-11.5	-2.9	0.1	0.0	i	-9.3	27.2
Cn1c(=O)c2cc(NC(=O)CCc3cccnc3)ccc2n1Cc1cccc(C(F)(F)F)c1	.	-35.8	23.2	-5.7	-15.6	.	.	.
CC(C)(C)c1ccc(NC(=S)NCc2cccnc2)cc1	-9.8	-25.5	7.9	4.6	-3.2	i	-7.8	7.0
Cc1ccc(NC(=O)CSc2nnc(NC3CC3)s2)cc1S(=O)(=O)N1CCOCC1	.	-10.8	-118.1	2.2	2.6	.	.	.
COc1ccc(-n2cc(-c3ccccc3)c3c(N4CC(C)OC(C)C4)ncnc32)cc1 (stereo unspecified)	69.2	.	16.2	-7.5	-3.8	i	-14.0	-5.5
CCCCCCC(=O)NNC(=O)CC(=O)Nc1ccccc1C(=O)O	3.4	3.4	.	0.7	2.4	i	0.9	82.5	eIF4H FP inh retest=-0.4;PABP polyA inh retest=11.3
CC(=O)c1ccc(N2CCN(C(=O)CCCn3c(=S)[nH]c4cc5c(cc4c3=O)OCO5)CC2)cc1	.	-23.9	20.8	2.1	-10.2	.	2.1	1.4
O=C(CC1CCCCC1)N1CCCC(c2nc(-c3ccc(S(=O)(=O)N4CCCC4)cc3)no2)C1 (stereo unspecified)	16.5	6.5	.	-11.4	-20.0	i	-9.8	1.6
CC(C)(C)CN1CCC(Oc2cccc(C(=O)N3CCNC(=O)C3(C)C)c2)CC1	7.1	-2.7	-4.6	-3.4	-1.8	i	5.6	-4.0
COc1cc(C=NOC(=O)Nc2ccccc2)cc(OC)c1OC	.	-10.1	-12.9	-2.3	8.3	.	.	.
Cc1oc(-c2cccs2)nc1CS(=O)CC(=O)NCCCN1CC(C)CC(C)C1 (stereo unspecified)	-4.1	5.0	?	1.3	3.9	i	2.3	4.3
CC(C)NC(=O)N(C)C[C@H]1Oc2cc(Br)ccc2S(=O)(=O)N([C@H](C)CO)C[C@H]1C	.	14.4&0.4&3.7	11.3	1.3	3.6	.	.	.
CCOc1ccc(NS(=O)(=O)c2ccc(C(=O)N(C)CC(=O)Nc3ccc(C)cc3)cc2)cc1	1.3	.	29.0	0.5	-6.9	i	.	.
Cc1noc(C)c1S(=O)(=O)Nc1ccc2c(c1)C(=O)N([C@H](C)CO)C[C@H](C)[C@@H](CN(C)C(=O)Nc1ccccc1)O2	.	-1.2&-4.8	-7.9[16.7 µM]	3.5	6.8	.	.	.
COc1ccc(C(=O)Nc2ccc(NC(C)=O)cc2)cc1S(=O)(=O)N1CCCC1	.	-20.5	-6.8	0.0	-2.1	.	.	.
CCOC(=O)c1c(C)n(CC)c2c1cc(O)c1ccccc12	-14.0	-12.1	6.1	-1.5	-0.9	i	0.8	3.0

15 neighbouring entries already listed, for reference:
SMILES	CSC inhib	Yeast UUG start	Env fusion inh	MT1-MMP act inh	MT1-MMP act inh RFP	Rce1 inh	eIF4H FP inh	PABP polyA inh	others
O=C(CSCc1cccc(Cl)c1)Nc1ccccc1-c1ccccc1	75.4*	.	19.4	-2.5	-6.1	i	-1.2	-1.0
O=C(CN1CCN(c2ccccn2)CC1)Nc1cc(C(F)(F)F)ccc1Cl	0.4	.	.	-1.0	-7.0	i	-3.7	1.3
c1ccc(OCCCn2ccnc2)cc1	13.3	-11.5	-2.9	0.1	0.0	i	-9.3	27.2
Cn1c(=O)c2cc(NC(=O)CCc3cccnc3)ccc2n1Cc1cccc(C(F)(F)F)c1	.	-35.8	23.2	-5.7	-15.6	.	.	.
CC(C)(C)c1ccc(NC(=S)NCc2cccnc2)cc1	-9.8	-25.5	7.9	4.6	-3.2	i	-7.8	7.0
Cc1ccc(NC(=O)CSc2nnc(NC3CC3)s2)cc1S(=O)(=O)N1CCOCC1	.	-10.8	-118.1	2.2	2.6	.	.	.
COc1ccc(-n2cc(-c3ccccc3)c3c(N4CC(C)OC(C)C4)ncnc32)cc1 (stereo unspecified)	69.2	.	16.2	-7.5	-3.8	i	-14.0	-5.5
CCCCCCC(=O)NNC(=O)CC(=O)Nc1ccccc1C(=O)O	3.4	3.4	.	0.7	2.4	i	0.9	82.5	eIF4H FP inh retest=-0.4;PABP polyA inh retest=11.3
CC(=O)c1ccc(N2CCN(C(=O)CCCn3c(=S)[nH]c4cc5c(cc4c3=O)OCO5)CC2)cc1	.	-23.9	20.8	2.1	-10.2	.	2.1	1.4
O=C(CC1CCCCC1)N1CCCC(c2nc(-c3ccc(S(=O)(=O)N4CCCC4)cc3)no2)C1 (stereo unspecified)	16.5	6.5	.	-11.4	-20.0	i	-9.8	1.6
CC(C)(C)CN1CCC(Oc2cccc(C(=O)N3CCNC(=O)C3(C)C)c2)CC1	7.1	-2.7	-4.6	-3.4	-1.8	i	5.6	-4.0
COc1cc(C=NOC(=O)Nc2ccccc2)cc(OC)c1OC	.	-10.1	-12.9	-2.3	8.3	.	.	.
Cc1oc(-c2cccs2)nc1CS(=O)CC(=O)NCCCN1CC(C)CC(C)C1 (stereo unspecified)	-4.1	5.0	?	1.3	3.9	i	2.3	4.3
CC(C)NC(=O)N(C)C[C@H]1Oc2cc(Br)ccc2S(=O)(=O)N([C@H](C)CO)C[C@H]1C	.	14.4&0.4&3.7	11.3	1.3	3.6	.	.	.
CCOc1ccc(NS(=O)(=O)c2ccc(C(=O)N(C)CC(=O)Nc3ccc(C)cc3)cc2)cc1	1.3	.	29.0	0.5	-6.9	i	.	.

(more compounds)
SMILES	CSC inhib	Yeast UUG start	Env fusion inh	MT1-MMP act inh	MT1-MMP act inh RFP	Rce1 inh	eIF4H FP inh	PABP polyA inh	others
CCOc1ccc(S(=O)(=O)N(C)c2ccc(OCC(=O)NCc3cccnc3)cc2)cc1	9.2	.	2.8	1.1	-2.0	i	-4.6	-3.0
CCCCN1C(=O)Nc2ccccc2S1(=O)=O	-12.7	.	1.2	2.0	-1.9	i	6.6	3.4
O=[N+]([O-])c1ccc(O)c(C=Nc2cccc3ccccc23)c1	24.1	-9.2	-8.2	5.0	6.7	i	13.3	19.5
CC(=O)c1cccc(OCc2cc(C(=O)N(C)Cc3nccs3)no2)c1	.	-10.0	4.1	0.0	0.2	.	.	.
N#Cc1ccccc1OCC(=O)OCC(=O)Nc1ccc2c(c1)OCO2	-6.7	-25.8	.	1.1	5.9	.	.	.
